HSD17B inh – blocks hydroxysteroid 17-beta dehydrogenase activity | Q99714 | recombinant HSD17B10, NADH fluorescence kinetic; many of its hits are not listed in these tables | Potency, µM (top dose mostly 57.1 µM), for inactives: at the highest dose activity change, negative = inhibition, most hits filed as inhibitors | hit rate 7.6% among 75,000; active means well fitted inhibition curve with a large enough effect; inconclusive means small, poorly fitted or top-dose-only effect; inactive means no such curve, though single readings can be large or run the other way;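 further: the protocol describes HADH2 (HSD17B10) and not the HSD17B4 of the title; nearly all actives have a fitted effect of over 70% in size; most hits overshoot -100% by far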
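20 nM HADH2, pH 9.0 Tris/Tween; cpd preinc 15 min RT; start w/ 1 mM NAD+ + 90 uM b-hydroxybutyryl-CoA; kinetic fluor ex360/em450 q30s x 4 min; delta last-first.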
Active calls of the source: *; ? = inconclusive; [ ] = remark or other dose. On the % scale 0 is the no-effect control and ±100 the full control effect; potency means the concentration at half of the fitted maximal effect. Some of the compounds tested, so the mix of outcomes need not match the whole.

The opening 6 compounds (preview)
SMILES	HSD17B inh
COc1ccc(-c2ccc(=O)n(CC(=O)NCc3ccco3)n2)cc1	-20.9%
COc1ccc(S(=O)(=O)NCc2csc(C)n2)cc1	6.0%
Cn1nnnc1NCc1c(F)cccc1Cl	5.1%
CC1=C(C(=O)NCc2ccccc2)C(c2ccc(C)o2)n2ncnc2N1 (stereo unspecified)	4.3%
CC(C)(CN)SCc1ccccc1	4.9%[11.4 µM]
CCN(CC)c1ccc(NC(=O)c2ccco2)cc1	-3.8%

The whole of this part, from the first entry:
SMILES	HSD17B inh
COc1ccc(-c2ccc(=O)n(CC(=O)NCc3ccco3)n2)cc1	-20.9%
COc1ccc(S(=O)(=O)NCc2csc(C)n2)cc1	6.0%
Cn1nnnc1NCc1c(F)cccc1Cl	5.1%
CC1=C(C(=O)NCc2ccccc2)C(c2ccc(C)o2)n2ncnc2N1 (stereo unspecified)	4.3%
CC(C)(CN)SCc1ccccc1	4.9%[11.4 µM]
CCN(CC)c1ccc(NC(=O)c2ccco2)cc1	-3.8%
NC(=O)C1CCN(c2nc(C3CC3)nc3c2nnn3Cc2ccccc2Cl)CC1	5.9%
CCCn1c(SCC(=O)NCC2CCCO2)nc2c1c(=O)n(C)c(=O)n2C (stereo unspecified)	8.8%
CCN1CC2=C(OC(N)=C(C#N)C2c2cccs2)/C(=C/c2cccs2)C1 (stereo unspecified)	?
COC(=O)[C@@]1(Cc2ccc(OC)cc2)[C@H]2c3cc(C(=O)N(C)C)n(Cc4ccc(C(F)(F)F)nc4)c3C[C@H]2CN1C(=O)c1ccccc1	5.6%
Cc1cc(C)n2nc(SCC(=O)N(C)Cc3ccccc3)nc2n1	16.1%
O=C(c1cc2sccc2n1Cc1ccccc1)N1CCc2ccccc21	?
COc1ccc(-c2nc(C#N)c(NCCc3ccccc3)o2)cc1	31.6µM*
O=C(c1cc2ccccc2oc1=O)N1CCCN(C(=O)c2cc3ccccc3oc2=O)CC1	?
COc1ccc(CCn2c(N3CCN(Cc4ccccc4)CC3)nc3c2c(=O)[nH]c(=O)n3C)cc1	-7.2%
Cc1cc(N)n2ncc(-c3ccccc3)c2n1	25.1µM*
Cc1ccc(N2C(=O)C3C(C2=O)C2C=CC3C23CC3)cc1 (stereo unspecified)	7.8%
CC(c1nnc(SCC(=O)Nc2sccc2C#N)n1-c1ccc(Cl)cc1)N(C)C (stereo unspecified)	-10.3%
O=C(Nc1ccc(Cl)cc1)N1CCSCC1	-1.4%
COc1ccc2[nH]cc(CCNc3cc(-c4ccccc4C(F)(F)F)ncn3)c2c1	?
COc1ccc(S(=O)(=O)Nc2nnc(C(C)C)s2)cc1	-23.1%
CCOc1ccc(N(CC(=O)NC2CCCC(C)C2C)S(=O)(=O)c2c(C)noc2C)cc1 (stereo unspecified)	3.6%
O=C(O)C[C@H](Cc1ccc2c(c1)OCO2)C(=O)O	1.9%[11.4 µM]
Cc1ccc2oc(-c3ccc(NC(=O)c4ccc5c(c4)OCO5)cc3)nc2c1	10µM*
CCN(CC)S(=O)(=O)c1ccc(OCC(=O)NCc2ccccc2)cc1	4.5%
O=C(NCN1CCN(c2ccccn2)CC1)c1cnccn1	2.9%
CCOC(=O)COc1ccc2cc(C(=O)OCC)c(=O)oc2c1	25.1µM*
CSC1=NCCN1C(=O)C(C)Oc1ccccc1 (stereo unspecified)	5.2%
COc1ccc(OC)c(-n2nnnc2SCC(=O)Nc2ccc(C(=O)N3CCCCC3)cc2)c1	1.2%
Cc1nc(N)sc1-c1nnc(SCC(=O)Nc2nccs2)n1C	1.1%
O=C1CSC(c2cn(-c3ccccc3)nc2-c2cccs2)N1CC1CCCO1 (stereo unspecified)	-15.4%
N#CCCn1c(=O)c(-c2cccs2)nc2cnc(Oc3cccc(Cl)c3)nc21	3.16µM*
O=C(CN1C(=O)C2C3C=CC(C3)C2C1=O)Nc1ccc2c(c1)OCCO2 (stereo unspecified)	5.2%
CCOC(=O)CNC(=O)CN1C(=O)CCS(=O)(=O)c2ccccc21	1.5%
COc1ccc(S(=O)(=O)N2CCOCC2)cc1C(=O)Nc1ccon1	6.3%
Cc1ccc(NCc2nnc(SCC(N)=O)n2CCc2ccccc2)cc1	-6.8%
CCOC(=O)N1CCC(c2nc(C)sc2C(=O)O)CC1	3.1%
CCN1C(=O)/C(=C/N2CC(C)CC(C)C2)SC1=S (stereo unspecified)	7.6%
O=C(Nc1ccc2c(c1)OCCO2)NC12CC3CC(CC(C3)C1)C2	5.4%
Cn1c(C(=O)NCCN2CCc3ccccc3C2)cc2c(=O)n(C)c3ccccc3c21	-27.4%
CCCCOc1cccc(C2(C(=O)O)CCCC2)c1	0.3%
Cc1cc2n(n1)C(c1cn(-c3ccccc3)nc1C)Nc1ccccc1-2 (stereo unspecified)	7.94µM*
Cc1ccccc1-c1nc(CS(=O)(=O)CC(=O)NCCCN2CCCC2=O)c(C)o1	-0.2%
CCN(CC)S(=O)(=O)c1ccc2oc(C(=O)NC(C)C)c(C)c2c1	-9.2%
Cn1nc(CC(=O)NCCN2C(=O)CSC2=O)c2ccccc2c1=O	0.8%
Cc1ccc2oc(=O)c3cnn(CC(=O)NCCN(C)C)c3c2c1	-4.4%
Cc1oc(C(=O)O)cc1COc1cccc2cccnc12	?
O=S1(=O)CCC(NS(=O)(=O)/C=C/c2ccccc2)C1 (stereo unspecified)	-8.1%
CCC(=O)N1CCc2cc(S(=O)(=O)CCC(=O)Nc3ccc(CC)cc3)ccc21	7.8%
CS(=O)(=O)N1CCC2(CC1)CN(C(=O)Nc1ccccc1)C2	2.8%
COc1ccccc1N1CCN(C(=O)c2cc(-c3ccco3)on2)CC1	-1.7%
Cc1nc(/N=C\N(C)C)sc1C(=O)Nc1ccccc1	-7.6%
Cc1ccc(C(C(=O)NC2CCCCC2)N(CCC(C)C)C(=O)CNC(=O)c2ccco2)o1 (stereo unspecified)	-10.6%
COc1ccc(CN2CCN(C(=O)c3cccnc3)CC2)cc1Br	-3.7%
O=C(CCNc1cc(Cl)cc(Cl)c1)c1ccco1	-19.2%
CCC1(C)N(O)C(C)(C)C(c2ccc(OC)cc2)=[N+]1[O-] (stereo unspecified)	3.6%
Cc1ccc2c(CC(=O)O)coc2c1	-0.7%
COc1ccccc1-n1cnc2cc(C(=O)NCCCN3CCOCC3)ccc21	-8.3%
Cc1ccccc1-c1n[nH]c(=S)o1	-9.6%
COc1cccc(CSc2nc3sc(C)c(C)c3c(=O)n2Cc2ccco2)c1	-8.9%
(continued)
SMILES	HSD17B inh
COc1ccc(N2CCN(C(=O)CC(NC(N)=O)c3cccc(Oc4ccccc4)c3)CC2)cc1 (stereo unspecified)	9.7%
C[N+](C)(N)Cc1csc(-c2ccc(Cl)cc2)n1	8.5%[11.4 µM]
CSc1nc(-c2ccco2)nn1C(=O)Cc1ccccc1	-2.0%
Cc1noc(C)c1-c1ccc2ncnc(NCc3cccs3)c2c1	-8.0%
CCOc1ccc(S(=O)(=O)Nc2cc(Cl)ccc2O)cc1	?
C=CCn1c(Cc2nc3ccc(Cl)cc3[nH]2)n[nH]c1=S	-29.6%
CC(=O)Nc1nc(C)c(-c2csc(Nc3ccc(O)cc3)n2)s1	?
CCOc1ccccc1N(CC(=O)O)S(=O)(=O)c1ccc(C)cc1	-2.3%
CCCCc1[nH]nc2c1C1(C(=O)N(CC)c3ccccc31)C(C#N)=C(N)O2 (stereo unspecified)	-7.0%
Cc1nc2cccc(C(=O)NCc3ccccc3)c2o1	-17.7%
C=CCn1c(SCC(=O)NCc2ccco2)nc2sc3c(c2c1=O)CCC3	0.6%
COc1cccc(C2/C(=C(\O)c3c(C)nc4c(C)cccn34)C(=O)C(=O)N2CCCN(C)C)c1 (stereo unspecified)	0.6%
Cc1ccc2c(c1)N(Cc1ccc3c(c1)OCO3)C(=O)C(C)O2 (stereo unspecified)	-2.0%
Cn1c(SCC(=O)N2c3ccccc3Sc3ccc(Cl)cc32)nnc1-c1ccco1	-7.9%
COc1c2c(c3c(c1CCC(=O)O)OC(C)(C)C=C3)OC(C)(C)C=C2	3.2%[11.4 µM]
CC1CCCC(C)N1C(=O)Nc1cccc(Cl)c1 (stereo unspecified)	-2.8%
Cc1ccc(-c2nnc(SCC(=O)N3CCCc4ccccc43)n2N)cc1	0.1%
O=C(CN1CCCC1)Nc1ccc(NC(=O)Nc2ccccc2)cc1	0.0%
O=C(CSc1ncn[nH]1)N1CCN(c2nnc(-c3ccccc3)c3ccccc23)CC1	-5.2%
Cc1nc2ccccc2nc1CSc1nncs1	-2.3%
Cc1ccc(C)c2[nH]c(=O)c(CN(CCN3CCOCC3)Cc3nnnn3CC3CCCO3)cc12 (stereo unspecified)	?
COc1ccccc1NC(=O)NCC(=O)Nc1ccc(F)c(F)c1	-5.0%
O=C1C(=O)c2ccccc2C(O)=C1Cc1ccccc1	5.8%[11.4 µM]
O=C(c1ccccc1-c1nc2ccccc2[nH]1)N1CCOCC1	-0.5%
O=C(/C=N/O)NCCN1CCCCC1	10.2%
O=C(c1ccco1)N1CCN(C(=O)C2CCCO2)CC1 (stereo unspecified)	-3.9%
COC(=O)N1CN(C(=O)OC)CN(C(=O)OC)C1	4.2%
COc1ccc(S(=O)(=O)Nc2cccc(C)n2)c2ccccc12	-23.7%
OB(O)c1ccc(Br)cc1	5.4%
COc1ccccc1CNC(=O)CCn1c(=O)sc2ccccc21	7.2%
CC(C)Sc1nc(SCC(=O)NCc2ccco2)c2c3c(sc2n1)COC(C)(C)C3	4.5%
CN1CCN(C(=O)Cn2c(=O)oc3cc(S(=O)(=O)NCc4ccccc4)ccc32)CC1	5.1%
COc1ccc(CCNC(=O)c2ccn[nH]2)cc1OC	5.1%
CC(CNC(=O)c1cncc(O)c1)NC(=O)c1cncc(O)c1 (stereo unspecified)	?
CCN1CCN(c2ccc(NC(=O)Cc3ccccc3)cc2)CC1	2.4%
CCOc1ccc(-n2c(=S)sc3c(=O)[nH]c(SCC(=O)NCc4ccco4)nc32)cc1	?
CCOC(=O)c1ccccc1NC(=O)c1ccc(Cl)c(S(=O)(=O)N2CCOCC2)c1	?
Cc1c(N=Cc2cccs2)c(=O)n(-c2ccccc2)n1C	-1.7%
CCN1CCN(C(c2ccccc2)c2nnnn2CCc2ccc(OC)c(OC)c2)CC1 (stereo unspecified)	9.2%
COC(=O)[C@@]1(Cc2ccc(OC)cc2)[C@H]2c3cc(C(=O)N4CCCC4)n(Cc4ccc(O)c(OC)c4)c3C[C@H]2CN1C(=O)c1ccccc1	4.9%
CC(=O)c1cccc(NC(=O)C2CCCN2S(=O)(=O)c2cccc3cccnc23)c1 (stereo unspecified)	-12.4%
Cc1nc2ccccc2c2nc(NC(=O)Cc3ccccc3)nn12	5.0%
COC(=O)c1ccc(OC)c(CSc2nnc(COc3ccc(OC)cc3)o2)c1	-3.9%
CC(=O)N1CCC2(CCN(Cc3ccccc3)CC2)CC1	-0.2%
O=C(Nc1ccc(Cl)cc1)NC1CCS(=O)(=O)C1 (stereo unspecified)	8.5%
O=C(Nc1cccnc1)c1cc(-c2cccs2)on1	-13.7%
COc1c(Cl)ccc(Cl)c1C(=O)NC(=O)N1CCOCC1	6.1%
O=C(OCc1c(Cl)nc2sccn12)c1cc2c(s1)CCCC2	10.7%
CCOC(=O)N1CCN(C(=O)CCn2c(=S)[nH]c3cc(OCC)c(OCC)cc3c2=O)CC1	6.0%
Cn1c(=NC(=O)c2cnccn2)sc2ccccc21	-7.2%
COc1cc(OC)cc(OCC(O)Cn2ccnc2C)c1 (stereo unspecified)	7.8%
Cc1cccc(CNc2ccnc(-c3ccoc3)n2)c1	-21.9%
COc1ccccc1CNC(=O)c1cnc2sccn2c1=O	-13.3%
Cc1csc2nc(CSc3nc4ccccc4o3)c(Br)n12	-7.0%
C#CCCCO/N=C1/[C@H]2O[C@@H]2[C@@H](O)[C@H]2[C@H]1CCn1c(=O)n(Cc3cc4c(cc3Cl)OCO4)c(=O)n12	1.3%[11.4 µM]
CC1CCCC(C)N1C(=O)Cn1c(SCC(=O)NCc2ccc3c(c2)OCO3)nc2ccccc21 (stereo unspecified)	2.6%
CCOC(=O)c1cc(=O)n2nc(-c3ccccc3F)nc2s1	?
CCCN1C(=O)c2ccc(C(=O)NCc3ccco3)cc2C1=O	3.6%
CCCc1cc(=O)n2[nH]c(NCc3ccccc3F)nc2n1	-1.2%
CCOC(=O)c1nnn(-c2nc(N3CCCC3)nc(N3CCCC3)n2)c1-c1ccccc1	14.5%

Gathered by group: those above with a cyano group (five)
SMILES	HSD17B inh
CCN1CC2=C(OC(N)=C(C#N)C2c2cccs2)/C(=C/c2cccs2)C1 (stereo unspecified)	?
COc1ccc(-c2nc(C#N)c(NCCc3ccccc3)o2)cc1	31.6µM*
CC(c1nnc(SCC(=O)Nc2sccc2C#N)n1-c1ccc(Cl)cc1)N(C)C (stereo unspecified)	-10.3%
N#CCCn1c(=O)c(-c2cccs2)nc2cnc(Oc3cccc(Cl)c3)nc21	3.16µM*
CCCCc1[nH]nc2c1C1(C(=O)N(CC)c3ccccc31)C(C#N)=C(N)O2 (stereo unspecified)	-7.0%

Following part.
SMILES	HSD17B inh
CCOC(=O)CSc1nc2sc(C)c(C)c2c(=O)[nH]1	9.6%
O=C(OCC(=O)N1CCOCC1)c1ccc[nH]c1=O	-4.6%
Cc1ccsc1C(=O)OCC(=O)NCC1CCCO1 (stereo unspecified)	-0.2%
O=C1c2ccccc2C2NC(=O)C3(CCCCC3)N12 (stereo unspecified)	4.4%
Clc1cccc(Cl)c1Cn1cnc2c(N3CCCCCC3)ncnc21	16.2%
O=C(CCC1CCCC1)Nc1ccon1	-10.5%
CC/C=C\C[C@H]1C(=O)CC[C@@H]1CC(=O)O	-1.6%
O=C1CC(N2CCN(Cc3ccc4c(c3)OCO4)CC2)C(=O)N1CCc1ccccc1 (stereo unspecified)	-2.8%
CC(C)NC(=O)CCCc1cn(C)c2ccccc12	?
